Compound activity (PubChem BioAssay)
PMP22 txn prim: modulators of PMP22 gene transcription in S16 Schwann cells | S16 Pmp22-F2sN Schwann cells (luciferase reporters placed in the Pmp22 gene), FLuc/NLuc coincidence luminescence, 24 h | Potency, µM (series often up to 57.5 µM), for inactives: at the top dose activity change, negative = inhibition, hits mostly inhibitors | hit rate 2% among 43,000 | AID 1508649; active = clear falling dose curves in both reporters; inconclusive = both reporters move, but less clearly or upward; inactive = either reporter flat; the % is the NLuc reporter signal; note: % is set by controls: 0 for no effect and ±100 for the full control effect; some results filed as inactive show a strong effect at the top dose
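Reporter cells (S16 Pmp22-F2sN, 500–1,000 per well) exposed to compounds for 24 h, 37C, 5% CO2; lysis with FLuc read after 10 min, then Stop&Glo and NLuc read after 10 min.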
HTT promoter inh: inhibits huntingtin promoter activity; Potency, µM (series often up to 57.5 µM), inactives show at the top dose activity change, negative = inhibition, actives largely listed as inhibitors; AID 1508623; hit rate 0.93% among 48,000; HEK293 HTT promoter firefly luciferase reporter (activity 0% = vehicle and -100% = no light), 24 h; active = well fitted inhibition curve with a large enough effect; inconclusive = small, poorly fitted or top-dose-only effect; inactive = no such curve, though single readings can be large or run the other way; note: nearly all actives have a fitted effect of over 50% in size
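Luminescence was read after Dual-Glo reagent and a 10 min room-temperature incubation. Values were normalized to vehicle (0% activity) and zero RLU (-100% activity). Reporter HEK293 cells had been exposed to compounds (up to 57.5 uM final) for 24 h.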
* marks the source's active call; other numbers are inactive results; ? = inconclusive; . = no result given; & = joins results of further samples; [ ] = dose if it differs, or a comment. Potency is the fitted concentration of half-maximal effect.

molecule	PMP22 txn prim	HTT promoter inh
O=C(CCCn1c2ccccc2c(=O)c2ccccc21)Nc1ccc(F)cc1Cl	-80.2%	?
CC(C(=O)Nc1ccccc1)n1nnc2sc3c(c2c1=O)CCCC3 (configuration not stated)	-17.5%	-16.7%
Cn1nnnc1SCCNCc1ccccc1Cl	-15.2%	7.0%
COc1ccc(NC(=O)C2=C(C)Nc3nc(SCc4ccccc4C)nn3C2c2ccc(Br)cc2)cc1 (configuration not stated)	?	-12.0%
CC(=O)Nc1ccc(NC(=O)C2CCN(S(=O)(=O)c3ccc4c(c3)CCCC(=O)N4)CC2)cc1	?	-2.4%
Cc1ccc(-n2c(-c3ccco3)nc3c(cnn3-c3ccc(C)cc3)c2=O)cc1	?	-19.3%
Cc1ccc(-c2nnc(Nc3cccc(Cl)c3)c3ccccc23)cc1S(=O)(=O)N1CCN(C)CC1	?	0.0%
COc1ccc(-c2cn3c(n2)sc2cc(C(=O)NCCc4ccc(OC)cc4OC)ccc23)cc1	?	-11.0%
Cc1cc(C)n(-c2nc3ccccc3nc2N2CCN(c3cccc(C(F)(F)F)c3)CC2)n1	11.3%	-3.7%
COC(=O)c1ccc([C@@H]2Nc3c(cccc3C(F)(F)F)[C@@H]3C=CC[C@@H]32)cc1	-2.9%	-24.3%
Cc1cccc2nc(Cn3c(=O)n(-c4ccccc4)c(=O)c4c5c(sc43)CCC5)cc(=O)n12	-11.5%	9.9%
COc1ccc(C2C(C(=O)Nc3cccnc3)=C(C)Nc3nc(-c4ccc(OC)c(OC)c4)nn32)cc1 (configuration not stated)	9.8%	-24.2%
O=C(Cn1ccn(-c2ccc(F)c(F)c2)c(=O)c1=O)Nc1ccccc1F	-18.2%	-7.3%
C[C@H](NC(=O)OC(C)(C)C)c1nnc(SCc2c(F)cccc2Cl)o1	-57.5%	-32.1%
O=C(Cn1c(=O)n(Cc2ccco2)c(=O)c2sc3ccccc3c21)Nc1ccc(F)cc1F	?	-13.6%
O=C(Nc1sc2c(c1C(=O)NCC1CCCO1)CCC2)c1cc(=O)c2ccccc2o1 (configuration not stated)	5.0%	-20.6%
Cc1cc(C(F)F)n2nc(C(=O)Nc3c(C)cccc3C)nc2n1	-7.2%	-5.2%
CCc1ccc(NC(=O)Cn2c(=O)n(Cc3nc(-c4ccccc4)no3)c(=O)c3cc4c(cc32)OCO4)cc1	-10.2%	-3.4%
CCn1cc(S(=O)(=O)c2cccc(C)c2)c(=O)c2cc(F)c(N3CCCC(C)C3)cc21 (configuration not stated)	3.8%	-12.0%
O=C(Nc1onc2c1CCCC2)c1ccc(Cl)cc1	?	61.8%[activator]
O=C(Nc1ccc(S(=O)(=O)N2CCC(c3nc4ccccc4s3)CC2)cc1)c1ccccc1F	?	-8.5%
COc1cc(C(=O)Nc2c(C(=O)Nc3ccccc3F)oc3ccccc23)cc(OC)c1OC	16.8µM*	-25.2%
CCc1ccccc1NC(=O)c1ccc2c(c1)CCN2S(C)(=O)=O	-7.9%	-3.4%
COC(=O)c1ccccc1NC(=O)c1ccc2c(c1)CCN2S(=O)(=O)c1ccc(Cl)cc1	-32.7%	-2.2%
CCOc1ccc(CCNC(=O)CCn2c(=O)c3cccn3c3cccnc32)cc1	-7.9%	-7.5%
COc1cccc(N2C(=O)CSC23C(=O)N(CC(=O)NCc2ccc(C)cc2)c2ccccc23)c1 (configuration not stated)	7.3%	-13.2%
COCC(=O)N1c2nc(-c3ccco3)nn2C2(CCCCC2)[C@@H]2CCCC[C@@H]21	?	-14.5%
Cc1ccc2oc(C(=O)Nc3ccc(S(=O)(=O)Nc4nccc(C)n4)cc3)cc(=O)c2c1	-25.9%	-1.5%
CC(C)Cc1nn2c(=O)cc(COC(=O)c3ccc(NC(=O)c4cccs4)cc3)nc2s1	18.0%	-2.2%
CCOC(=O)c1ccc(N2CC3=C(C2=O)C(c2ccc(OC)cc2)NC(=O)N3C)cc1 (configuration not stated)	12.4%	-13.2%
CCCCCNC(=O)C(=O)NCC(c1ccc2c(c1)OCO2)N1CCOCC1 (configuration not stated)	-2.5%	-6.0%
COc1ccc(CCn2c3c(c(=O)[nH]c2=O)C(NC(=O)c2ccc(Cl)cc2)(C(F)(F)F)C(=O)N3)cc1OC (configuration not stated)	1.3%	-1.5%
CCOC(=O)c1c(C)c(-c2ccccc2)n(CC(=O)NC2CCCCC2)c1C	-4.6%	-2.7%
CCc1nn(CC(=O)NCc2ccccc2Cl)c(=O)c2cccn12	3.1%	-2.9%
CC(C)c1cc(-c2nc(-c3ccc(Br)cc3)no2)n[nH]1	-25.2%	26.0%
COc1ccc(-c2nc(CNC(=O)NC3CCCCC3)c(C)o2)c(OC)c1	-2.3%	-6.3%
COC(=O)c1cnc(N2CCN(c3ccccc3F)CC2)c2ccccc12	-16.4%	3.4%
CC(NC(=O)C1CCN(S(=O)(=O)c2ccc3nc4c(c(C(=O)O)c3c2)CCCC4)CC1)c1ccccc1 (configuration not stated)	6.0%	-14.8%
Cc1ccccc1CN1C(=O)c2ccccc2Sc2ccc(C(=O)NC3CCCCC3)cc21	-13.1%	1.4%
Cc1ccc(NC(=O)CCc2c(C)nc3c(-c4ccccc4)c(C)nn3c2C)c(C)c1	17.5%	-11.1%
Cc1c(OCC(F)(F)F)ccnc1CS(=O)c1nc2ccccc2[nH]1 (configuration not stated)	.	14.7%&29.0%
Cc1ccc(-c2onc(C)c2C)cc1S(=O)(=O)N1CCC(C)CC1	?	?
CCN(CC)S(=O)(=O)c1nnc(NC(=O)COc2ccccc2F)s1	-12.3%	-7.4%
COc1ccc(N2CCN(C3=NS(=O)(=O)C(c4cccc(Br)c4)=C3C)CC2)cc1	?	-16.0%
COc1cc(CNc2ccc3[nH]c(=O)[nH]c3c2)ccc1OCc1ccc(F)cc1Cl	?	-6.6%
COC(=O)c1cc(S(=O)(=O)NCC2CCN(Cc3ccc(C)cc3)CC2)c[nH]1	?	-27.2%
Cn1cc(-c2cc3n(n2)CCC(=O)N3CCCC(=O)NCc2ccccc2)c2ccccc21	-3.2%	-9.2%
Cc1ccc(S(=O)(=O)NC(=O)NN2CC3CCCC3C2)cc1 (configuration not stated)	.	-16.1%&-5.3%
CCc1cccc(-n2nnc(-c3nsc(NC(=O)c4cccs4)n3)c2C)c1	2.2%	26.9%
CCC1CN(C(=O)N2CCC(C(=O)NCCN(C)C)CC2)c2ccccc2O1 (configuration not stated)	-10.3%	-0.5%
CCc1sc(Nc2ccc(C)cc2Br)nc1-c1cc2cccc(OC)c2oc1=O	?	-25.8%
CC(C)(C)c1ccc(C(=O)NC(Cc2c[nH]c3ccccc23)C(=O)OCC(=O)c2ccccc2)cc1 (configuration not stated)	-2.5%	5.7%
COc1ccc(NS(=O)(=O)c2ccc3[nH]c4c(c3c2)CCCCCC4)cc1	?	?
COc1ccc(OC)c2sc(N3CCN(C(=O)CCS(=O)(=O)c4ccc(F)cc4)CC3)nc12	?	-14.8%
CCOc1ccc(Nc2c(S(=O)(=O)c3ccc(C)cc3)cnc3ccc(OC)cc23)cc1	?	?
Cc1nn2c(C)c(C(=O)NCc3cccc(Br)c3)cnc2c1-c1ccccc1	61.0%	-7.7%
COCCNc1nc2c(c(=O)n(C)c(=O)n2C)n1Cc1c(F)cccc1Cl	12.6µM*	?
CC(C)c1nn2c(=O)cc(COC(=O)c3ccc(NC(=O)c4cccs4)cc3)nc2s1	11.8%	-9.8%
COc1ccc(S(=O)(=O)c2cnc3cc(OC)c(OC)cc3c2N2CCCC(C)C2)cc1 (configuration not stated)	-0.4%	?
COc1ccc(Cl)cc1NC(=O)c1c(NCc2ccc(C)o2)sc2c1CCC(C)C2 (configuration not stated)	?	-19.5%

(next part)
molecule	PMP22 txn prim	HTT promoter inh
CCOc1ccccc1CNC(=O)c1ccc2nc(N3CCC(C)CC3)sc2c1	-36.3%	1.78µM*
CCOC(=O)C1CCN(c2nc3c(S(=O)(=O)c4ccc(CC)cc4)nnn3c3ccc(Cl)cc23)CC1	?	-12.9%
Cc1[nH]n2c(=O)cc(-c3ccccc3Cl)nc2c1-c1ccccc1	?	?
Cc1ccc(Cl)cc1N1CCN(C(=O)c2c(C)oc3ncnc(N4CCCCC4)c23)CC1	?	-26.7%
Cc1oc(C)c2c(=O)cc(-c3ccc4c(c3)OCO4)cc(OC(=O)c3cccc(Br)c3)c12	?	-31.6%
COc1ccc2cc3c(N)nn(C(=O)c4ccccc4Cl)c3nc2c1	?	-29.4%
COc1ccc(CNS(=O)(=O)c2ccc3c(c2)NC(=O)C(C)C(=O)N3)cc1 (configuration not stated)	-6.5%	-20.7%
COc1ccc2c(C)cc(SCC(=O)Nc3nsc(-c4ccc(C(C)(C)C)cc4)n3)nc2c1	?	56.3%[activator]
CCOc1ccc(NC(=O)Cn2c(=O)n(Cc3nc(-c4ccccc4)no3)c(=O)c3cc4c(cc32)OCO4)cc1	30.3%	-4.8%
O=C(NCCc1ccccc1)c1ccc(CSc2nc3cccnc3n2Cc2ccc(F)cc2)cc1	-35.4%	?
O=C(Nc1ccc(Br)cc1F)N1CCC(CN2CCCC2)CC1	-9.6%	-23.3%
CC(NC(=O)CCCC1=NS(=O)(=O)c2ccccc2N1)c1ccccc1 (configuration not stated)	16.4%	-1.5%
Cc1cccc(NC(=O)NCCn2c(=O)oc3ccc(C)cc32)c1	-15.0%	-9.8%
CCCn1c2ccccc2c2cnn(CC(=O)N3CCC(C)CC3)c(=O)c21	-13.5%	-5.2%
CCC(CC)C(=O)Nc1cccc(-c2cn3cccnc3n2)c1	-12.7%	19.2%

Profiles, looked up by structure.
`Cc1ccc(-c2nnc(Nc3cccc(Cl)c3)c3ccccc23)cc1S(=O)(=O)N1CCN(C)CC1` in the list: PMP22 txn prim = ?; HTT promoter inh = 0.0%
`CCn1cc(S(=O)(=O)c2cccc(C)c2)c(=O)c2cc(F)c(N3CCCC(C)C3)cc21` (configuration not stated) in the list: PMP22 txn prim = 3.8%; HTT promoter inh = -12.0%

Going on with the list:
molecule	PMP22 txn prim	HTT promoter inh
CC(C)(Oc1ccc(Cl)cc1)C(=O)Nc1nnc2n1CCS2	7.0%	-10.0%
COC(=O)c1ccc(NS(=O)(=O)c2c(C)nc3sccn3c2=O)cc1	-23.5%	-29.1%
COC(=O)c1sc(-c2ccccc2)cc1NC(=O)c1cccc(Cl)c1	-17.5%	8.7%
Cc1c(Cl)cccc1NC(=O)NCCOCCn1c(=O)oc2ccccc21	-9.4%	-26.3%
CCOc1ccccc1NC(=O)c1c(NC(=O)c2ccccc2C)sc2c1CCC(C)C2 (configuration not stated)	-29.1%	-3.7%
Cc1ccc(Nc2ncnc3onc(C)c23)cc1Cl	10.8%	-18.7%
Cc1cc(S(=O)(=O)Nc2ccc3[nH]c(=O)sc3c2)ccc1F	-6.4%	?
CCN(CC)CCNC(=O)CN1C(=O)c2cccnc2Oc2ccc(C)cc21	3.5%	4.1%
O=C(NC1(C(F)(F)F)C(=O)Nc2c1c(=O)[nH]c(=O)n2-c1ccccc1)c1ccccc1Cl (configuration not stated)	15.1%	-7.0%
CCCSCCCNC(=O)c1ccc(C)c(NC(=O)c2nsc3ccccc23)c1	3.1%	-13.6%
CCOC(=O)c1sc2ccccc2c1S(=O)(=O)N1CCN(c2cccc(OC)c2)CC1	6.26µM*	-11.2%
CCOC(=O)N1CCN(C(=O)c2ccc3c(c2)N(Cc2cccc(Cl)c2)C(=O)c2ccccc2S3=O)CC1 (configuration not stated)	-19.7%	?
COc1cc2c(cc1OC)C(CC(=O)O)N(C(=O)Nc1cc(OC)c(OC)c(OC)c1)CC2 (configuration not stated)	-42.3%	-6.8%
COc1ccc(C(C)=O)c(O)c1	.	-8.0%
O=C(Cc1ccccc1)Nc1cccc(-c2cn3cccnc3n2)c1	-0.3%	53.4%[activator]
COc1ccc(N(CC(=O)Nc2cc(C)ccc2C)S(=O)(=O)c2ccc(OC)c(OC)c2)cc1	15.6%	-49.8%
Cc1cccc(Nc2nc3ccccc3n3c(N)nnc23)c1	-5.0%	11.6%
CCOc1ccc(Nc2c(S(=O)(=O)c3ccc(Cl)cc3)cnc3ccc(OC)cc23)cc1	-18.9%	?
COc1ccccc1CCNC(=O)CCCn1c(=O)c2cccn2c2cccnc21	?	-9.8%
CCN(Cc1ccccc1)C(=O)c1cn(-c2cccc(OC)c2)c(=O)c2ccccc12	11.2%	-12.8%
Cc1cc(C)c(NC(=O)CSc2n[nH]c(-c3ccccc3Cl)n2)c(C)c1	-13.5%	-20.6%
Cc1cccc(NC(=O)c2nc(S(C)(=O)=O)ncc2Cl)c1	2.38µM*	?
O=C1c2ccccc2-c2onc3c(Br)cc(NC4CCCCC4)c1c23	-32.2%	11.1%
COCCCNC(=O)C1CCC(CNS(=O)(=O)c2ccc(OC)cc2)CC1 (configuration not stated)	6.4%	-16.2%
CN(C)c1ccc(CNC(=O)CN2C(=O)c3cccnc3Oc3ccc(Cl)cc32)cc1	-3.6%	6.2%

Only part of the results is shown; the hit share may differ from the screen's.
